Screens as filed in PubChem.
DUX4 txn inh – blocks DUX4-driven transcriptional activation. 293T-iDUX4 ZSCAN4-Gaussia luciferase reporter, 24 h; hits give low values. activity change, negative = inhibition, % (test concentration not listed). hit rate 0.8% among 37,000;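 active = -10% or lower and over 25 points stronger than a control reporter; inconclusive = -10% or lower with a smaller gap; inactive = above -10%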;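 note: 0% = median of neutral control wells and -100% = median of positive control wells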
DUX4 txn inh difference – also measured in DUX4 txn inh; calls as there; Gaussia minus Italica difference, %; measured here: selective DUX4 reporter inhibition;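 worked out from the two reporters; negative = selective loss of the DUX4 reporter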
DUX4 txn inh control – further read-out of DUX4 txn inh, marked with its call; activity change, negative = inhibition, %; measured here: Italica tet-on control reporter;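 0 = neutral control and -100 = positive control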
* hit, by the source's call; ? = inconclusive; / = no result given. An excerpt (hit frequency here may not be typical).

No.	DUX4 txn inh	DUX4 txn inh difference	DUX4 txn inh control	canonical_smiles
1	-2	3	-5.1	CNC[C@@H]1Oc2ccc(NC(=O)Nc3ccc(F)cc3)cc2C(=O)N([C@H](C)CO)C[C@H]1C
2	-7	-4	-3.2	O=C(C[C@@H]1C=C[C@H](NC(=O)Nc2ccc(C(F)(F)F)cc2)[C@@H](CO)O1)NCc1ccccn1
3	-2	-5	3.0	CCC(=O)NC[C@@H]1[C@H](c2ccc(-c3cccc(F)c3)cc2)[C@@H](CO)N1C(=O)CC
4	3	-1	3.6	O=C(C[C@H]1C=C[C@H](NC(=O)Nc2ccc3c(c2)OCO3)[C@H](CO)O1)NCCCN1CCOCC1
5	-5	-12	6.4	COCC(=O)N1[C@H](CO)[C@@H](c2ccccc2)C12CN(Cc1cc(F)ccc1F)C2
6	?	/	/	OC[C@@H]1[C@@H](c2ccc(/C=C/c3ccccc3)cc2)[C@@H]2CN(Cc3ccncc3)CCCCN12
7	1	-6	6.3	O=C(C[C@H]1C[C@H]2c3cc(NC(=O)NC4CCCC4)ccc3O[C@H]2[C@H](CO)O1)NCCN1CCCCC1
8	0	0	0.4	C[C@@H]1CN([C@H](C)CO)C(=O)c2cc(-c3cccnc3)cnc2O[C@@H]1CN(C)C(=O)C1CCCCC1

Remaining list, next part.
No.	DUX4 txn inh	DUX4 txn inh difference	DUX4 txn inh control	canonical_smiles
9	0	0	-0.2	C[C@@H]1CN([C@@H](C)CO)C(=O)c2cc(NC(=O)C3CCCCC3)ccc2O[C@@H](C)CCCCO[C@H]1CN(C)C(=O)CCC(F)(F)F
10	1	-2	2.9	O=C(C[C@@H]1CC[C@@H]2NC[C@H](O)COC[C@H]2O1)NC1Cc2ccccc2C1
11	-1	-1	0.7	C[C@@H]1CN([C@@H](C)CO)C(=O)Cc2cc(NC(=O)Cn3cnnn3)ccc2O[C@@H]1CN(C)S(=O)(=O)c1ccc(Cl)cc1
12	?	/	/	CCC(=O)N1CC2(C1)[C@@H](c1ccc(-c3cccc(F)c3)cc1)[C@@H](CO)N2CC1CC1
13	-4	-10	5.6	CN1CCCCN2[C@H](CO)[C@@H](c3ccc(C#Cc4ccccc4F)cc3)[C@H]2C1
14	?	/	/	COc1ccccc1S(=O)(=O)N(C)C[C@@H]1Oc2cc(C#CCC(C)C)ccc2S(=O)(=O)N([C@H](C)CO)C[C@@H]1C
15	1	5	-4.0	CN1C(=O)c2cc(NC(=O)c3cccs3)ccc2OC[C@H]2O[C@@H](CC(=O)NCC3CC3)CC[C@@H]21
16	2	3	-0.6	O=C(Nc1ccccc1F)N[C@@H]1CC[C@H](CC(=O)N2CCCCC2)O[C@@H]1CO

More compounds follow:
No.	DUX4 txn inh	DUX4 txn inh difference	DUX4 txn inh control	canonical_smiles
17	3	0	2.9	O=C(Nc1cccc(Cl)c1)N1C[C@@H]2[C@H](c3ccccc31)[C@H](CO)N2Cc1cccnc1
18	4	-4	7.7	CCCC#Cc1ccc([C@@H]2[C@@H](CO)N3C(=O)CN(C(=O)Nc4cccc(F)c4)C[C@@H]23)cc1
19	-1	0	-1.2	Cc1ccccc1S(=O)(=O)NCC[C@H]1CC[C@@H](NC(=O)Nc2cccc(F)c2)[C@@H](CO)O1
20	23	5	18	CN1c2ccc(Br)cc2[C@H]2[C@H](CCN2C(=O)C2CCOCC2)[C@H]1CO
21	1	7	-6.1	CN(C)CC(=O)Nc1ccc2c(c1)[C@@H]1C[C@H](CC(=O)NCc3ccccn3)O[C@@H](CO)[C@@H]1O2
22	-6	-6	0.6	CO[C@H]1CC[C@@H]2CCN(C)C(=O)[C@H](C)N(C)C(=O)c3cc(C#N)ccc3OC[C@H]1O2
23	23	4	19	COc1ccc2c3c(n(C)c2c1)[C@H](CO)N(C(=O)CN(C)C)CC31CN(Cc2cccnc2)C1
24	2	5	-3.6	CC(C)c1cn(CC[C@H]2CC[C@@H](NC(=O)c3cccc(F)c3)[C@@H](CO)O2)nn1

Later entries:
No.	DUX4 txn inh	DUX4 txn inh difference	DUX4 txn inh control	canonical_smiles
25	-2	-12	9.4	O=C(C[C@H]1CC[C@@H]2[C@H](COC[C@@H](O)CN2Cc2cccc(F)c2)O1)NCC1CCCCC1
26	8	2	5.8	COc1ccc(CN2C[C@@H](O)COC[C@@H]3O[C@H](CC(=O)NCc4ccncn4)CC[C@H]32)cc1
27	-1	0	-1.9	Cc1noc(C)c1S(=O)(=O)N(C)C[C@@H]1OCCCC[C@H](C)Oc2ccc(NC(=O)Nc3cccc4ccccc34)cc2C(=O)N([C@H](C)CO)C[C@@H]1C
28	-4	-2	-2.4	C[C@H](CO)N1C[C@H](C)[C@@H](CN(C)Cc2ccc(-c3ccccc3)cc2)Oc2ccc(NS(=O)(=O)c3cccs3)cc2CC1=O
29	4	-2	6.0	COc1cccc(-c2ccc([C@@H]3[C@@H](CO)N4CCCCN(C(=O)NC(C)C)C[C@@H]34)cc2)c1
30	14	3	10	CN(C)C(=O)c1cccc(-c2ccc([C@@H]3[C@@H](CO)N4C(=O)CNC[C@@H]34)cc2)c1
31	7	1	6.1	CCC(=O)N1C[C@@H](C)[C@H](OC)CN(C)C(=O)c2ccc(NC(=O)c3ccc(OC)cc3)cc2OC[C@H]1C
32	-4	1	-5.0	Cc1noc(C)c1NC(=O)Nc1ccc2c(c1)CC(=O)N([C@H](C)CO)C[C@@H](C)[C@H](CN(C)Cc1ccc(C(F)(F)F)cc1)O2

The list goes on.
No.	DUX4 txn inh	DUX4 txn inh difference	DUX4 txn inh control	canonical_smiles
33	-1	4	-5.8	Cc1cccc(S(=O)(=O)N2C[C@H](O)COC[C@H]3O[C@H](CC(=O)NCc4ccc5c(c4)OCO5)CC[C@@H]32)c1
34	5	2	3.5	CCC(=O)N1C[C@@H](O)COC[C@H]2O[C@@H](CC(=O)NC)CC[C@@H]21
35	3	0	2.8	CN(C)CC(=O)N[C@H]1CC[C@H](CC(=O)O)O[C@@H]1CO
36	32	29	2.7	CN(C)C(=O)c1ccc(-c2ccc3c(c2)[C@H]2[C@H](CCN2S(=O)(=O)c2cn(C)cn2)[C@@H](CO)N3)cc1
37	3	5	-1.7	CO[C@H]1CC[C@H]2CCOc3c(C#N)cccc3C(=O)N(C)C[C@H](OC)[C@H](C)C(=O)N(C)C[C@@H]1O2
38	0	0	-0.1	CNC[C@@H]1Oc2ccc(NS(=O)(=O)c3ccc(OC)cc3)cc2C(=O)N([C@@H](C)CO)C[C@H]1C
39	2	0	2.2	C[C@@H]1CN([C@H](C)CO)C(=O)c2cc(NC(=O)c3ccncc3)ccc2O[C@@H]1CN(C)Cc1ccc(Oc2ccccc2)cc1
40	1	-1	1.1	CC=Cc1ccc2n(c1=O)C[C@@H]1[C@@H](CO)[C@H](C(=O)NCC3CC3)[C@H]2N1C(=O)C1CC1 (mixture of isomers)

The list goes on:
No.	DUX4 txn inh	DUX4 txn inh difference	DUX4 txn inh control	canonical_smiles
41	-3	-3	-0.5	O=C(Nc1cccc(F)c1)N1C[C@H]2[C@@H](c3ccccc31)[C@H](CO)N2C(=O)c1ccccc1F
42	-1	-2	1.0	C[C@@H]1CN([C@@H](C)CO)C(=O)c2cc(C#CC3(O)CCCC3)cnc2O[C@H]1CN(C)Cc1ccccc1
43	?	/	/	COc1ccc(C#Cc2ccc([C@@H]3[C@@H](CO)N4CCCCN(C(=O)Nc5ccccc5)C[C@@H]34)cc2)cc1
44	-7	-1	-5.9	COCC(=O)N[C@@H]1C=C[C@H](CC(=O)N2CCCCC2)O[C@H]1CO
45	1	4	-2.6	O=C(C1CCOCC1)N1C[C@@H]2[C@H](c3ccccc31)[C@@H](CO)N2Cc1ccccc1F
46	-2	-6	4.7	CCC(=O)Nc1ccc2c(c1)OC[C@H](C)N(CC1CC1)C[C@H](C)[C@@H](OC)CN(C)C2=O
47	0	-1	1.1	COc1ccc(NC(=O)N(C)C[C@@H]2Oc3ncc(C#C[C@@H](C)O)cc3C(=O)N([C@H](C)CO)C[C@@H]2C)cc1
48	-1	29	-30	COc1cccc(-c2ccc3c(c2)[C@H]2[C@H](CCN2C(=O)Nc2ccccc2OC)[C@@H](CO)N3C)c1

Further structures.
No.	DUX4 txn inh	DUX4 txn inh difference	DUX4 txn inh control	canonical_smiles
49	?	4	-4.5	CN(C)C(=O)c1cccc(-c2ccc(C3[C@@H]4CN(S(=O)(=O)c5ccc(F)cc5)C[C@H]3N4)cc2)c1 (stereo not given in full)
50	3	1	1.7	N#C[C@H]1[C@@H](c2ccc(-c3ccccc3F)cc2)[C@H](CO)N1C(=O)c1ccccn1
51	1	6	-4.8	C[C@H](CO)N1C[C@H](C)[C@H](CN(C)Cc2ccccc2C(F)(F)F)OCc2cn(nn2)CCCC1=O
52	2	2	0.0	CCCC(=O)Nc1ccc2c(c1)C(=O)N(C)C[C@@H](OC)[C@H](C)CN(C(=O)CC1CC1)[C@@H](C)CO2
53	1	0	1.6	Cc1noc(C)c1NC(=O)Nc1ccc2c(c1)C(=O)N([C@H](C)CO)C[C@H](C)[C@H](CN(C)C(=O)Cc1ccccc1)OCCCC[C@H](C)O2
54	-6	-8	2.0	O=C(C[C@H]1C[C@H]2c3cc(NS(=O)(=O)c4ccc(F)cc4)ccc3O[C@H]2[C@H](CO)O1)NCc1ccccn1
55	-2	0	-2.2	CC(C)CC#Cc1ccc2c(c1)O[C@H](CN(C)Cc1cncnc1)[C@@H](C)CN([C@@H](C)CO)S2(=O)=O
56	-1	5	-5.2	O=C(C[C@H]1CC[C@@H]2[C@H](COC[C@@H](O)CN2C(=O)c2ccccc2F)O1)NCc1ccc(Cl)cc1

Numbers 43 through 53 from above:
No.	DUX4 txn inh	DUX4 txn inh difference	DUX4 txn inh control	canonical_smiles
43	?	/	/	COc1ccc(C#Cc2ccc([C@@H]3[C@@H](CO)N4CCCCN(C(=O)Nc5ccccc5)C[C@@H]34)cc2)cc1
44	-7	-1	-5.9	COCC(=O)N[C@@H]1C=C[C@H](CC(=O)N2CCCCC2)O[C@H]1CO
45	1	4	-2.6	O=C(C1CCOCC1)N1C[C@@H]2[C@H](c3ccccc31)[C@@H](CO)N2Cc1ccccc1F
46	-2	-6	4.7	CCC(=O)Nc1ccc2c(c1)OC[C@H](C)N(CC1CC1)C[C@H](C)[C@@H](OC)CN(C)C2=O
47	0	-1	1.1	COc1ccc(NC(=O)N(C)C[C@@H]2Oc3ncc(C#C[C@@H](C)O)cc3C(=O)N([C@H](C)CO)C[C@@H]2C)cc1
48	-1	29	-30	COc1cccc(-c2ccc3c(c2)[C@H]2[C@H](CCN2C(=O)Nc2ccccc2OC)[C@@H](CO)N3C)c1
49	?	4	-4.5	CN(C)C(=O)c1cccc(-c2ccc(C3[C@@H]4CN(S(=O)(=O)c5ccc(F)cc5)C[C@H]3N4)cc2)c1 (stereo not given in full)
50	3	1	1.7	N#C[C@H]1[C@@H](c2ccc(-c3ccccc3F)cc2)[C@H](CO)N1C(=O)c1ccccn1
51	1	6	-4.8	C[C@H](CO)N1C[C@H](C)[C@H](CN(C)Cc2ccccc2C(F)(F)F)OCc2cn(nn2)CCCC1=O
52	2	2	0.0	CCCC(=O)Nc1ccc2c(c1)C(=O)N(C)C[C@@H](OC)[C@H](C)CN(C(=O)CC1CC1)[C@@H](C)CO2
53	1	0	1.6	Cc1noc(C)c1NC(=O)Nc1ccc2c(c1)C(=O)N([C@H](C)CO)C[C@H](C)[C@H](CN(C)C(=O)Cc1ccccc1)OCCCC[C@H](C)O2

Other results
No.	DUX4 txn inh	DUX4 txn inh difference	DUX4 txn inh control	canonical_smiles
57	0	-5	4.2	CNC(=O)C[C@H]1CC[C@H]2[C@H](COc3ccc(NC(=O)Nc4cccc(C)c4)cc3C(=O)N2C)O1
58	0	1	-0.9	COc1ccc(S(=O)(=O)Nc2ccc3c(c2)C(=O)N([C@@H](C)CO)C[C@H](C)[C@@H](CN(C)S(=O)(=O)c2cn(C)cn2)OCCCC[C@H](C)O3)cc1
59	1	3	-1.2	Cc1noc(C)c1S(=O)(=O)Nc1ccc2c(c1)CC(=O)N([C@@H](C)CO)C[C@@H](C)[C@H](CN(C)Cc1ccc(Oc3ccccc3)cc1)O2
60	1	-1	2.6	C[C@@H]1CCCCO[C@H](CN(C)C(=O)C2CCCCC2)[C@@H](C)CN([C@@H](C)CO)C(=O)c2cc(NS(=O)(=O)c3ccccc3)ccc2O1
61	0	3	-2.6	COc1ccc(S(=O)(=O)Nc2ccc3c(c2)CC(=O)N([C@H](C)CO)C[C@@H](C)[C@H](CN(C)CC2CC2)O3)cc1
62	2	1	1.8	C[C@H]1CC=CC[C@H](c2ccc3c(c2)OCO3)NC(=O)[C@H](Cc2ccccc2)N(C)C(=O)c2ccccc2O1 (mixture of isomers)
63	6	3	3.1	CCNC(=O)C[C@@H]1CC[C@@H]2[C@H](COC[C@@H](O)CN2C(=O)C2CCOCC2)O1
64	-4	0	-4.4	C[C@@H]1CN([C@H](C)CO)C(=O)CCCn2cc(nn2)CO[C@@H]1CN(C)Cc1ccccc1C(F)(F)F

The listing continues.
No.	DUX4 txn inh	DUX4 txn inh difference	DUX4 txn inh control	canonical_smiles
65	-5	1	-6.0	CN(C)CC(=O)N1[C@H](C#N)[C@@H](c2ccc(-c3ccccc3F)cc2)[C@@H]1CO
66	-1	6	-6.8	CC(C)C[C@@H]1COCc2cn(nn2)CC[C@H](C)C(=O)N1
67	-2	4	-6.0	O=C(Nc1cccc(F)c1)N1C[C@H]2[C@@H](c3ccccc31)[C@@H](CO)N2C(=O)Cc1ccccc1
68	3	5	-2.2	COc1ccc(NC(=O)Nc2ccc3c(c2)[C@H]2C[C@H](CC(=O)N4CCN(C)CC4)O[C@H](CO)[C@H]2O3)cc1
69	-8	-2	-6.7	CCCN1[C@@H]2Cn3c(ccc(/C=C/c4ccccc4)c3=O)[C@H]1[C@@H](C(=O)NCC1CC1)[C@@H]2CO
70	4	6	-1.8	C[C@@H](NC(=O)C[C@@H]1C[C@@H]2c3cc(NC(=O)C4CCOCC4)ccc3O[C@@H]2[C@H](CO)O1)c1ccccc1
